High-throughput results from PubChem BioAssay.
pPAFAH inh – inhibitors of human plasma PAF acetylhydrolase (pPAFAH); Q13093; recombinant pPAFAH, FP-rhodamine probe fluorescence polarization; inhibition, % at 3.39 µM; 330,000 compounds, 1.5% hits; AID 463082;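 active means inhibition above the mean inhibition across the screen plus 3 SD, cut at about 25% in these data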;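 further: inhibitors block binding of the rhodamine activity-based probe so polarization drops; 0% = enzyme with DMSO and 100% = wells lacking pPAFAH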
Target sequence (Q13093 whole entry, looked up): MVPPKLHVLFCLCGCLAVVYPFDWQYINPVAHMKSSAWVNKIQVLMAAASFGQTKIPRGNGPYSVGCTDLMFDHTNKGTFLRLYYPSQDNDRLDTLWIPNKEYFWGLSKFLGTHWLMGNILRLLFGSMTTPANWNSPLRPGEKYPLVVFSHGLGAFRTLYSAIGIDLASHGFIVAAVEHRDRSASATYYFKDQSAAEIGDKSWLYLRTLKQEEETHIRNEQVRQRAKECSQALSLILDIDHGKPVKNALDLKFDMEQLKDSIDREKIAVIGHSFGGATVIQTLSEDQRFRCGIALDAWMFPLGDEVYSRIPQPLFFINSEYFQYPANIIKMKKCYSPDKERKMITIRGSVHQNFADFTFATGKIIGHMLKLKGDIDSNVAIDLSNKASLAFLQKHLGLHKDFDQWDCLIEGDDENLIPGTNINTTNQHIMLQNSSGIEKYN
PAFAH1B3 inh – blocks human PAF acetylhydrolase 1B catalytic subunit 3. inhibition, % at 3.39 µM. Q15102. recombinant PAFAH1B3, FP-rhodamine probe, fluorescence polarization. AID 492972. 340,000 compounds, 0.28% hits;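 active means inhibition above the screen-wide average of all tested compounds plus 3 SD, cut at about 25% in these data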;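 further: 0% = enzyme with DMSO only and 100% = wells lacking PAFAH1B3 protein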
Target sequence (Q15102 whole entry, looked up): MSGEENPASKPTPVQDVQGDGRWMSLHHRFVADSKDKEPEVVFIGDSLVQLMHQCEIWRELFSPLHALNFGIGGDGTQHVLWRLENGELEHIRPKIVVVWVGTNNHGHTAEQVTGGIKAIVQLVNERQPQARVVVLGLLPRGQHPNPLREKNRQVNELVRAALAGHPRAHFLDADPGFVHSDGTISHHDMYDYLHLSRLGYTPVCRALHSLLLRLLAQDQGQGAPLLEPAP
PAD4 inh – PAD4 (human) enzyme inhibition | inhibition, % at 6.36 µM | recombinant PAD4, RCA probe fluorescence polarization | AID 485272 | 330,000 compounds, 0.41% hits;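 active means percent inhibition above a cutoff equal to the mean of all tested compounds plus 3 SD, cut at about 15% in these data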;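 further: 0% = PAD4 with RCA probe and DMSO and 100% = probe without PAD4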
LYPLA1 counter – counter-screen for PME1 inhibitors: inhibitors of human LYPLA1 | O75608 | recombinant LYPLA1, FP-Rh probe fluorescence polarization | inhibition, % at 5.9 µM | 320,000 compounds, 0.16% hits;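 active means inhibition above the mean of all tested compounds plus 3 SD, set per campaign, cut at about 14% in these data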;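 further: inhibitors block serine hydrolase probe labeling of LYPLA1 so polarization falls; 0% = enzyme with DMSO and 100% = wells lacking LYPLA1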
Target sequence (O75608 whole entry, looked up): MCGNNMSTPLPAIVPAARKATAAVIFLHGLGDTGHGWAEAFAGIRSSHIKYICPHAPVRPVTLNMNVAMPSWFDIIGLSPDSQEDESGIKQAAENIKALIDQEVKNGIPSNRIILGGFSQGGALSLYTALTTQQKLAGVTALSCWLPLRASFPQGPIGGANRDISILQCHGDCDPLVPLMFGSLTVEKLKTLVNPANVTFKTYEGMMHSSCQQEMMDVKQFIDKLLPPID
PAFAH2 inh – inhibitors of human PAFAH2. 340,000 compounds, 0.99% hits. inhibition, % at 3.39 µM. Q99487. recombinant PAFAH2, FP-rhodamine activity probe, fluorescence polarization;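 active means inhibition above the mean over all tested compounds plus 3 SD, cut at about 30% in these data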;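 further: inhibitors block probe labeling of enzyme so polarization drops; 0% = enzyme with DMSO and 100% = wells lacking PAFAH2 protein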
Fam108B counter – Fam108B inhibition, counter-screen for RBBP9 inhibitors; recombinant Fam108B, FP-Rh probe fluorescence polarization; inhibition, % at 9.51 µM; 300,000 compounds, 0.33% hits; AID 1947;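 active means inhibition above the screen mean inhibition plus 3 SD, computed separately per campaign, cut at about 18% in these data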;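 further: inhibitors lower polarization as less probe binds the enzyme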
PAFAH1B2 FP inh – PAFAH1B2 (human) inhibition. recombinant PAFAH1B2, FP-rhodamine activity probe, fluorescence polarization. P68402. 340,000 compounds, 1.2% hits. inhibition, % at 3.39 µM;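 active means inhibition above the mean of all tested compounds plus 3 SD, cut at about 24% in these data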;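 further: 0% = enzyme with DMSO and 100% = wells lacking PAFAH1B2; many of its hits are not listed in these tables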
GSTO1 counter – GSTO1 inhibition, counter-screen for RBBP9 inhibitors | inhibition, % at 5.96 µM | recombinant GSTO1, activity-based probe fluorescence polarization | AID 1974 | P78417 | 300,000 compounds, 1.1% hits;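 active means inhibition above the campaign mean inhibition plus 3 SD, cut at about 35% in these data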;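 further: 0% = GSTO1-1 with DMSO and 100% = wells lacking GSTO1-1 enzyme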
The depositor's hits bear a star; / = no result given. Only part of the results is shown. The share of hits here may be higher or lower than overall.

SMILES | pPAFAH inh | PAFAH1B3 inh | PAD4 inh | LYPLA1 counter | PAFAH2 inh | Fam108B counter | PAFAH1B2 FP inh | GSTO1 counter
CCCNc1c(NS(=O)(=O)c2ccc(C)c(C)c2)c(=O)oc2ccccc12 | 5 | 13 | -4 | 1 | 20 | 2 | 7 | 2
O=C(NCCc1ccccc1Cl)C1CCN(S(=O)(=O)c2cccs2)CC1 | 2 | 8 | 4 | -3 | 10 | 3 | 7 | 2
O=C1CN(C(=O)c2ccccc2F)C(c2ccc(F)cc2)c2cc(Br)ccc2N1 (stereo unspecified) | 4 | -3 | 0 | -4 | 1 | -3 | 4 | -4
Cc1ccc(S(=O)(=O)N2CCCCC2)cc1NC(=O)COC(=O)c1ccccc1F | 12 | 0 | -2 | 0 | 52* | -5 | -5 | 4
COc1ccc(Nc2nc3ccccc3nc2NS(=O)(=O)c2ccc(NC(C)=O)cc2)cc1 | 27* | 8 | -3 | -6 | 10 | 7 | 7 | -18
O=C(Cc1ccc(-n2c(=O)c3sccc3n(Cc3ccc(F)cc3)c2=O)cc1)NCc1ccco1 | -2 | 11 | 2 | -2 | -13 | -9 | 1 | -10
COc1ccc(CNS(=O)(=O)c2ccc(-c3cnc(C4CC4)o3)cc2)cc1 | 4 | 0 | 3 | 1 | 0 | -4 | 3 | -1
COc1ccccc1N(Cc1cc(=O)[nH]c2ccccc12)C(=O)c1cccc([N+](=O)[O-])c1 | -1 | 9 | -4 | -2 | 10 | -1 | 9 | 36*
Cc1cc(C)cc(NC(=O)CSCc2nc3c(nnn3Cc3ccc(F)cc3)c(=O)[nH]2)c1 | 7 | 4 | 3 | 0 | 2 | 6 | 0 | -7
COc1ccc(S(=O)(=O)N(CCN2CCOCC2)Cc2cc(OC)ccc2OC)cc1 | 2 | 0 | -4 | -5 | 5 | 0 | 3 | -4
CCOC(=O)c1ccccc1NC1c2ccccc2C(=O)N1C1CCN(C(=O)OCC)CC1 (stereo unspecified) | 3 | -2 | 1 | -2 | -3 | -1 | 6 | 2
CC(NC(=O)COC(=O)Cc1ccc(-c2ccccc2)cc1)c1ccccc1 (stereo unspecified) | 9 | 7 | 2 | 1 | 6 | -4 | 4 | 5
COc1cccc(NC(=O)Nc2nnc(N3C(C)CCCC3C)s2)c1 (stereo unspecified) | 7 | 2 | -2 | -1 | 19 | 10 | 9 | -2
COCCN(CCOC)S(=O)(=O)c1ccc(C(=O)NCCCN2CCOCC2)cc1 | -1 | -3 | -8 | 3 | -2 | 0 | -5 | 3
CCCCN1CNC(=S)N(c2ccccc2OCC)C1 | -5 | 6 | 0 | 1 | 12 | -2 | -2 | 0
O=C(COC(=O)CCC(=O)c1ccc(F)cc1)Nc1ccc(F)cc1F | 17 | 4 | -5 | -1 | 5 | -2 | 1 | -9
CC(C)C(=O)NNC(=O)CSc1nnc(-c2ccccc2)c(-c2ccccc2)n1 | 1 | 5 | -4 | -1 | 5 | 1 | 4 | -1
COc1ccc(C(=O)NC2CCCc3c2cnn3-c2cccc(C)c2C)o1 (stereo unspecified) | 5 | 0 | -2 | 1 | 9 | 1 | 2 | 3
COc1ccc(NC(=O)Nc2c(C)n(C)n(-c3ccccc3)c2=O)c(OC)c1 | -1 | 5 | 0 | -4 | 6 | 0 | -1 | 1
CC(/C=C/c1ccccc1)=N/NC(=O)c1cc([N+](=O)[O-])cc([N+](=O)[O-])c1 | 0 | 4 | -1 | 2 | 3 | 3 | -2 | 5
CCCCN(C)CCNC(=O)c1c[nH]c2ccc(S(=O)(=O)N(CC)CC)cc2c1=O | 2 | 7 | 0 | -2 | -12 | 6 | 2 | 7
O=S(=O)(Nc1cccc(-c2ccc(N3CCOCC3)nn2)c1)c1cc(Cl)ccc1Cl | 11 | 11 | 0 | -2 | 4 | 1 | 4 | -3
Clc1ccc(C2C3=C(Nc4ncnn42)c2ccccc2CC3)cc1 (stereo unspecified) | -1 | / | -2 | 2 | / | -2 | / | 1
Cc1ccc(NS(=O)(=O)c2ccc(-c3cnc(C4CC4)o3)cc2)c(C)c1 | 53* | 14 | 1 | -7 | 4 | 2 | 2 | -1
CC(/C=N/n1c(C2CCCCC2)n[nH]c1=S)=C\c1ccccc1 | 6 | -1 | 1 | -6 | 7 | 1 | 2 | -9
COc1ccc2cc(C#N)c(N3CCN(Cc4nnnn4CCC(C)C)CC3)nc2c1 | 4 | -5 | -2 | -2 | -4 | 1 | -1 | -3
O=[N+]([O-])c1ccc(O)c(C=Nc2ccc3nc(-c4ccccc4)[nH]c3c2)c1 | 8 | 2 | -3 | 1 | 2 | 2 | 6 | -2
Cc1cc(C)c(NC(=S)N2CCCC2C(=O)O)c(C)c1 (stereo unspecified) | 4 | 7 | 2 | 0 | 5 | 1 | -3 | 0
O=C(O)c1cc(-c2c[nH]c3ccccc23)nc2ccc3ccccc3c12 | 5 | -5 | -2 | 5 | 5 | 2 | 5 | -17
CCOc1ccc(Br)cc1S(=O)(=O)Nc1cccc(S(=O)(=O)N(C)C)c1 | 1 | 10 | 2 | -3 | 10 | 3 | 2 | -7
CCC(=O)C1CCCN(C(=O)c2cccc(OC3CCN(S(C)(=O)=O)CC3)c2)C1 (stereo unspecified) | -2 | -3 | -4 | -1 | 1 | -3 | -6 | 4
Fc1ccc(-n2ncc3c(SCc4cccnc4)ncnc32)cc1 | 3 | 7 | 18* | -2 | 1 | -9 | 2 | -4
CC1CCCN(c2nc3ccccc3nc2C(C#N)S(=O)(=O)c2ccccc2)C1 (stereo unspecified) | 11 | 14 | -1 | 1 | 14 | 8 | 7 | -15
Cn1nc(-c2ccccc2)cc1NS(=O)(=O)c1ccccc1 | 2 | 10 | -2 | 5 | 3 | -3 | 0 | 2
N#C/C(=C(/O)c1cccs1)c1nc2ccccc2[nH]1 | 9 | 9 | -10 | 6 | 4 | 10 | 1 | -25
CC1CCc2sc(NC(=S)NC(=O)c3ccccc3)c(C#N)c2C1 (stereo unspecified) | 12 | 2 | -2 | 2 | 5 | 3 | -1 | 12
CCN1C(=O)S/C(=C/c2cn(C)c3ccccc23)C1=O | 3 | 4 | -2 | 3 | -3 | 1 | 0 | 0
CCSc1nc(N2CCOCC2)c2c(c1C#N)CCCC2 | -3 | 5 | 1 | -1 | 4 | 5 | 1 | -19
CC(NC(=O)Cn1nc(C(=O)O)c2ccccc2c1=O)c1ccccc1 (stereo unspecified) | 0 | 6 | -2 | -2 | 5 | 1 | -2 | 4
c1ccc(C2C3=C(Nc4ncnn42)c2ccccc2CCC3)cc1 (stereo unspecified) | -15 | -1 | -7 | -3 | 4 | -4 | 3 | 9
N#CC1(c2ccc(NC(=O)c3ccccc3)cc2)CCCC1 | 5 | 5 | 3 | -3 | 1 | -1 | 0 | -4
O=C(N/N=C/c1ccc([N+](=O)[O-])cc1)c1cccc2cc[nH]c12 | 5 | 1 | 1 | -2 | -7 | 9 | 1 | 12
COc1ccc(S(=O)(=O)N2CCOCC2)cc1NC(=O)CN(C)Cc1c(F)cccc1Cl | -4 | -3 | -5 | 0 | 7 | 1 | 1 | -2
Cc1cccc2cc(-c3nc4ccc(C(=O)O)cc4[nH]3)c(=O)oc12 | 6 | 9 | -2 | 1 | 9 | 1 | 9 | -1
Cc1cc(C(=O)NCCCn2ccnc2)cs1 | 5 | 6 | -6 | 0 | 5 | 5 | 2 | 1
C/C(=N\Nc1nc2ccccc2s1)c1ccc2c(c1)OCO2 | 3 | 9 | -3 | -1 | -3 | -4 | -5 | -4
Cc1ccc([N+](=O)[O-])cc1S(=O)(=O)Nc1ccc(-c2ccc(N3CCOCC3)nn2)cc1 | 8 | -1 | 2 | 0 | 9 | -4 | 4 | -1
COC(=O)c1ccc2nc(Nc3nc4ccc(F)cc4s3)sc2c1 | 7 | 6 | -5 | -15 | -9 | -2 | 1 | -35
O=c1[nH]c(C2CCN(S(=O)(=O)/C=C/c3ccccc3)CC2)nc2c1nnn2Cc1ccccc1 | 6 | -7 | -5 | 0 | 3 | -10 | -4 | -3
CCOc1ccc(OCCNC(=O)C(NC(=O)c2c(F)cccc2F)C(C)C)cc1 (stereo unspecified) | 0 | 8 | 2 | 2 | 9 | / | 0 | /
COc1ccc(Nc2cc(NCCCO)c([N+](=O)[O-])c3nonc23)cc1 | -3 | -5 | 1 | 3 | 1 | 1 | 2 | 13
O=C(NCCCn1ccnc1)c1cc(C2CC2)on1 | -12 | 4 | -4 | 2 | 0 | 1 | 0 | 7
Cc1ccc2c(c1)C(c1ccccc1)N(C(=O)c1c(F)cccc1Cl)CC(=O)N2 (stereo unspecified) | 4 | 0 | 5 | 2 | -2 | 5 | 2 | 0
CCOC(=O)N1CCC(Nc2c(Nc3cccc(CC)c3)c(=O)c2=O)CC1 | 22 | 2 | -2 | 1 | 9 | 2 | -1 | 3
CC1=CCCC(C)(C)C1/C=C/C(C)=N/NC(=O)c1ccncc1 (stereo unspecified) | 1 | 6 | -3 | 0 | 11 | 4 | 14 | 5
Cc1[nH]n2c(=O)c3c(nc2c1-c1ccc(F)cc1)CCCC3 | 1 | / | -3 | -2 | / | 4 | / | 8
COc1cccc(C(=O)COc2ccccc2N2C(=O)C3C4C=CC(C4)C3C2=O)c1 (stereo unspecified) | -3 | 6 | -1 | 0 | 1 | 2 | 1 | 12
Cc1cccc(Oc2sc(C(=O)c3ccccc3)c(N)c2C#N)c1 | 26* | 9 | -2 | -2 | 7 | -8 | 5 | -44
CCC(C(=O)OCC(=O)Nc1cccc(OC)c1)c1ccccc1 (stereo unspecified) | 2 | 0 | -3 | 1 | 6 | 5 | 15 | 5
CC(=O)N1CCc2cc(C(=O)CN3CCN(C(=O)c4ccco4)CC3)ccc21 | -2 | / | -1 | -1 | / | 3 | / | -7

Additional records:
SMILES | pPAFAH inh | PAFAH1B3 inh | PAD4 inh | LYPLA1 counter | PAFAH2 inh | Fam108B counter | PAFAH1B2 FP inh | GSTO1 counter
Cc1cccc2cc3c(N)c(C#N)sc3nc12 | 1 | 13 | -6 | 2 | -4 | 7 | 3 | 0
Cc1cccc(C(=O)Nc2sc3c(c2C#N)CCCCC3)c1 | 0 | -1 | -9 | 3 | -7 | -1 | 2 | -3
O=C(NCc1cccs1)C1(S(=O)(=O)c2ccccc2)CC=CC1 | 3 | 1 | 4 | -2 | -5 | -3 | -3 | 0
Cc1c(OC(C)C(=O)N2C[C@H]3C[C@@H](C2)c2cccc(=O)n2C3)ccc2c3c(c(=O)oc12)CCCC3 (stereo partly specified) | 1 | 5 | -3 | 2 | 0 | -1 | 4 | -6
Cc1ccc(S(=O)(=O)N2CCN(CC(=O)NC3CCCc4ccccc43)CC2)c(C)c1 (stereo unspecified) | 5 | 5 | -3 | -3 | -5 | 4 | 1 | 0
O=S(=O)(c1ccc(Br)s1)N1CCN(Cc2ccc3c(c2)OCO3)CC1 | -2 | -7 | -2 | 1 | 0 | 5 | 7 | 9
O=C(Cc1ccccc1F)Nc1cc(S(=O)(=O)N2CCCC2)ccc1Cl | 5 | 3 | -2 | 0 | -8 | / | 0 | /
COc1ccc(NC(=O)c2ccc(NS(=O)(=O)c3cccc4cccnc34)cc2)cc1 | 7 | 5 | 1 | 1 | -8 | -2 | 7 | 2
Cc1cc(S(=O)(=O)N2CCCC(N(C)CCc3ccccn3)C2)c(C)cc1Cl (stereo unspecified) | 6 | 1 | -1 | 1 | -2 | 3 | 5 | -3
COC(=O)c1cccc(CN2C(=O)SC(Nc3ccc(C)cc3)C2=O)c1 (stereo unspecified) | 3 | 6 | 6 | 3 | 5 | 3 | 4 | 5
CSc1ccc(S(=O)(=O)N2CCN(Cc3ccc4c(c3)OCO4)CC2)cc1 | 1 | -4 | 0 | -2 | -3 | 0 | 10 | 7
